# MgrA DNA FP: S. aureus MgrA-DNA binding modulation. 84,000 compounds, 0.13% hits. inhibition, %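 (about 10 µg/mL by stock and volumes)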. fluorescence polarization. AID 602314;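 active = above 50% in either of two replicates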;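 note: 0% = protein plus DNA without compound and 100% = DNA alone without protein; higher means less MgrA bound to DNA so lower polarization; one replicate is shown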
# S aureus helic: S. aureus DNA helicase inhibition; purified S. aureus helicase, fluorescence unwinding assay; about half of the hits fall short of the stated cut; inhibition, %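 (tested at about 80 µM)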; 120,000 compounds, 0.05% hits; AID 485395;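 active = both duplicates at 50% or more, or one of them with a favoured structure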;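 note: 0% = mean of negative control wells and 100% = mean of positive control wells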
# * hit, by the source's call; x = no result given; & = joins results of further samples. Only part of the results is shown; the hit share may differ from the screen's.
# The line under a structure holds: MgrA DNA FP	S aureus helic
> CC1CC(OCC(O)CN2CCN(c3ccccc3F)CC2)CC(C)(C)C1 (configuration not stated)
 : x	9.0
> O=C(c1snc2ccc(Cl)cc12)N1CCN(c2ccccc2)CC1
 : 3.7	-1.0
> Cc1c(C(C)C)c(=O)oc2cc(O)ccc12
 : 3.6	0.0
> Cc1cc(C)c(COC(=O)c2nonc2N)c(C)c1
 : -2.6	9.0
> Cc1ccc(N=C2CSc3nnc(-c4cccnc4)n3N2)cc1
 : x	-12.0
> CC(C)(C)n1c(-c2ccncc2)n[nH]c1=S
 : -0.2	x
> CCCCn1nc(C(=O)Nc2ccc3nc(C)sc3c2)ccc1=O
 : x	-1.0
> S=C(NCC1CC1)NCC1CC1
 : -2.1	x
> CSc1nc(C)nc(Sc2ccccn2)c1C#N
 : x	6.0
> CCn1c(SCC(=O)Nc2ccccc2SCC(N)=O)n[nH]c1=O
 : x	11.0
> Oc1ccc2ccccc2c1C(c1ccccc1)N1CCCCC1 (configuration not stated)
 : -1.9	x
> CCCS(=O)(=O)N1CCC(C(=O)NCc2cccnc2)CC1
 : x	10.0
> Cc1nnc(SCC(=O)N(C(C)C)C(C)C)[nH]c1=O
 : -6.2	3.0
> CC(C)OC(=O)c1cc2c(ccn2C)n1CCC#N
 : 1.9	5.0
> CCN(Cc1ccccc1)C(=O)c1cccc(N2C(=O)CCC2=O)c1
 : 0.1	9.0
> CCCn1c(NC(=O)[C@@H](NS(=O)(=O)c2ccccc2)C(C)C)nc2ccccc21
 : x	-20.0
> c1ccc(-c2nc3ccccn3c2Nc2ccc3c(c2)OCCO3)cc1
 : -0.2	8.0
> CCCCC(C(=O)O)n1c(O)c(C2=c3ccccc3=NC2=O)sc1=S (configuration not stated)
 : x	6.0
> CCC(Sc1nnc(C)n2c1cc1oc(C)cc12)C(=O)Nc1cccc(OC)c1 (configuration not stated)
 : 0.7	7.0
> Cc1nn(CCC#N)cc1/C=N/NC(=O)CSc1nc2ccccc2[nH]1
 : x	-3.0
> CC1(C)C(C=C(Cl)Cl)C1C(=O)N1CCCCC1 (configuration not stated)
 : x	-8.0
> Cc1n[nH]c(C)c1Cc1ccc(N)cc1
 : 1.6	-7.0
> CN1CCN(CCC(O)COc2ccc(OCC(O)CCN3CCN(C)CC3)cc2)CC1 (configuration not stated)
 : 0.2	-4.0
> C=CCn1c(=O)c2ccccc2n2c(SCC)nnc12
 : x	-9.0
> Cc1c(C#N)c2ccccn2c1C(=O)NN
 : x	-8.0
> CCOC(=O)c1cc(-c2ccccc2)sc1NC(=O)COC(=O)c1ccco1
 : x	-1.0
> FC(F)(F)c1cccc(NCn2nc(-c3ccccc3)oc2=S)c1
 : -0.7	4.0
> O=C(CSCc1nc2scc(-c3cccs3)c2c(=O)[nH]1)Nc1nc2c(s1)CCCC2
 : x	3.0
> O=C(COC(=O)c1cccc(Cl)c1)c1ccccc1
 : -2.8	16.0
> OCC1CCCN(C(=S)NCc2ccccc2)C1 (configuration not stated)
 : 4.0	13.0
> COc1ccc(C(=O)OCC(=O)NC2CC2)cc1
 : x	-12.0
> CCOc1ccc(NC(=S)NCC2CCCO2)cc1 (configuration not stated)
 : 1.1	22.0
> COc1ccc(CCNC(=O)C2CCCN(c3nc4ccccc4o3)C2)cc1OC (configuration not stated)
 : x	-8.0
> COC(=O)c1cnc(N2CCCN(S(=O)(=O)c3cccc4nonc34)CC2)nc1C(F)(F)F
 : x	-17.0
> CCN(CC)CC(=O)N1N=C(c2cccs2)CC1c1ccco1 (configuration not stated)
 : x	7.0
> CN(C(=O)c1ccccc1)c1ccc(OCC(=O)NC2CCS(=O)(=O)C2)cc1 (configuration not stated)
 : -0.5	10.0
> Cc1ccc(Nc2cc(=O)[nH]n2C)cc1Cl
 : -1.4	x
> CC(C)(C)c1ccc(-c2nc3cc(Cl)ccc3c(=O)o2)cc1
 : -1.5	x
> Cc1ncoc1C(=O)NCc1ccc(Cl)cc1
 : -0.6	7.0
> Cc1csc(OCC(=O)Nc2ccc(C)c(C)c2)n1
 : x	5.0
> CNC(=O)C1CCCN(c2nnc(-n3c(C)ccc3C)s2)C1 (configuration not stated)
 : x	16.0
> O=C(CSc1ncc(C(F)(F)F)cc1Cl)c1ccc(O)cc1O
 : x	0.0
> Cc1cc(C)nc(SCc2ccc(-c3nnc4n3CCCCC4)cc2)n1
 : x	0.0
> NC(=O)c1ccccc1NC(=O)C1C2C=CC(C2)C1C(=O)O (configuration not stated)
 : 0.3	x
> CCOc1ccc(N(CC(=O)N2CCN(c3ccccc3OC)CC2)S(=O)(=O)c2ccc(SC)cc2)cc1
 : -1.8	x
> CC1OC(O[C@H]2/C=C/C=C/C=C/C=C/C=C/C=C/C=C/[C@H](C)[C@@H](O)[C@@H](C)[C@H](C)OC(=O)C[C@H](O)C[C@H](O)CC[C@@H](O)[C@H](O)C[C@H](O)C[C@]3(O)C[C@H](O)[C@@H](C(=O)O)[C@H](C2)O3)C(O)C(N)C1O (some centres not stated)
 : 6.0	x
> CCOC(=O)/C=C1\CCCCCN1
 : 2.4	15.0
> Cc1nn(-c2ccccc2)c(Cl)c1C1N(Cc2ccccc2)CCN1Cc1ccccc1
 : -4.2	-9.0
> O=C1N(CCc2ccccc2)c2ccccc2C12OCCCO2
 : -0.4	3.0
> COC(=O)c1ccc(C2C3=C(CC(c4ccco4)CC3=O)Nc3ccccc3N2C(=O)C2CC2)cc1 (configuration not stated)
 : x	-28.0

# New compounds follow
# The line under a structure holds: MgrA DNA FP	S aureus helic
> CSc1nc2ccccc2n1Cc1ccccc1F
 : 1.1	6.0
> Cc1cc(=O)oc(C)c1C(=O)NCCC1=CCCCC1
 : x	7.0
> CCN(CC(=O)Nc1ccc(N2CCOCC2)cc1)CC(=O)Nc1cc(C)on1
 : x	-4.0
> COc1ccc2c(CN3c4ccccc4CC3C)cc(=O)oc2c1 (configuration not stated)
 : x	5.0
> CCN1CCN(CCNC(=O)c2cc(-c3ccccc3)c(N3CCOCC3)s2)CC1
 : x	-12.0
> CC1C(O)CC(c2ccccc2)N(C)C1c1ccccc1 (configuration not stated)
 : -2.2	x
> Cc1sc(/N=C/c2cn(Cc3ccccc3)c3ccccc23)c(C#N)c1C
 : 0.2	6.0
> COC(=O)c1[nH]nc2c1C(=O)N(c1ccc(F)cc1)C2=O
 : 1.9	17.0
> Cc1ccc(-c2csc(N)n2)c(C)c1
 : -0.7	x
> Cc1cc(N)ccc1-n1cnnn1
 : x	-16.0
> Cc1c(C(=O)N2CCc3ccccc32)oc2c1C(=O)CC(C)(C)C2
 : 2.0	4.0
> O=C(NCCc1ccncc1)NC(=O)c1c(F)cccc1F
 : 2.5	x
> CCC(=O)NC1(Cc2ccc(O)cc2)CCCCC1
 : -1.8	10.0
> COC(=O)c1c(C)n(S(C)(=O)=O)c2ccc(NS(C)(=O)=O)cc12
 : -1.2	-7.0
> COc1cccc(OCCNC(=O)c2cc(C(F)(F)F)cc(C(F)(F)F)c2)c1
 : -2.8	18.0
> O=C(OCC(O)CO)c1ccccc1Nc1ccnc2cc(Cl)ccc12 (configuration not stated)
 : -1.4&1.1	x
> CC(CN1CCOCC1)OC(=O)c1ccco1 (configuration not stated)
 : x	-2.0
> CCc1cccc(NC(=O)C(NC(=O)C2CCC(C)CC2)C(C)C)c1 (configuration not stated)
 : 0.6	9.0
> Cc1ccc(-c2cc(NC(=O)CN3CC(C(=O)N4CCOCC4)Oc4ccccc43)on2)cc1 (configuration not stated)
 : x	-9.0
> Cc1ccc(C(O)CN=Cc2c(O)ccc3ccccc23)cn1 (configuration not stated)
 : 3.4	-21.0

# Structures shown so far with a tert-butyl group, in the order listed:
# The line under a structure holds: MgrA DNA FP	S aureus helic
> CC(C)(C)n1c(-c2ccncc2)n[nH]c1=S
 : -0.2	x
> CC(C)(C)c1ccc(-c2nc3cc(Cl)ccc3c(=O)o2)cc1
 : -1.5	x

# (list continues)
# The line under a structure holds: MgrA DNA FP	S aureus helic
> COc1ccc(C)cc1NC(=O)CN1CCCC1c1ccc2c(c1)OCCCO2 (configuration not stated)
 : x	14.0
> CCOc1ccc(-c2nonc2NC(=O)c2oc3cc(C)c(Cl)cc3c2C)cc1OCC
 : -1.1	0.0
> C=CCn1c(SCC(=O)c2ccc(Cl)s2)nnc1-c1ccncc1
 : x	-15.0
> CC(=O)Nc1cc2ccc(OC(C)=O)cc2oc1=O
 : 0.2	-14.0
> Cc1cc(-c2ccc(C)c(S(=O)(=O)N3CCc4ccccc43)c2)on1
 : x	13.0
> COc1cccc(-c2ncnn2-c2cccc(Cl)c2C)c1
 : x	0.0
> Cc1ccc(C)n1C(Cc1c[nH]c2ccccc12)C(=O)O (configuration not stated)
 : 65.7*	5.0
> CC(C)Cn1c(SCC(=O)c2ccc(Cl)s2)nnc1-c1ccco1
 : x	-3.0
> Cc1ccc(NC(=O)Cc2c(O)c3ccccc3[nH]c2=O)c(C)c1
 : x	6.0
> O=C(CSc1ccccn1)N1CCC(c2ccccc2)=N1
 : x	-4.0
> CN1CCN(C(=O)c2ccc(C(C)(C)C)cc2)CC1
 : 0.9	3.0
> COc1ccc(C2/C(=C(\O)c3ccc(F)cc3)C(=O)C(=O)N2c2nnc(C)s2)cc1OC (configuration not stated)
 : 2.5	4.0
> Cc1c(C(=O)N2CCC(C(=O)N3CCCCC3)CC2)oc2cc3sc(N(C)C)nc3cc12
 : 8.7	-8.0
> CC(C)(C)NC(=O)Nc1ccc2ccccc2c1
 : -1.1	x
> Cc1cc(C(=O)OCC(N)=O)c(C)n1-c1ccccc1
 : -0.2	-10.0
> COC1OC(OC)C2C3CCC(CC3O)C12 (configuration not stated)
 : 0.1	x
> O=C(/C=C/c1ccco1)Nc1ccc(S(=O)(=O)N2CCCCCC2)cc1
 : x	-2.0
> Nc1c2c(nn1-c1ccccc1)CC(=O)NC2=O
 : x	1.0
> NC(C(=O)O)C(c1ccccc1)C(F)(F)F (configuration not stated)
 : x	-19.0
> CCNc1ccc(C(=O)OCC)cc1NC(=O)c1cccc(N(C)C)c1
 : x	-4.0
> N#CC1=C(N)SC(c2cccs2)C(C#N)=C1N (configuration not stated)
 : 8.4	-74.0
> O=C1C=C(Nc2cccc3ccccc23)CCC1
 : 0.9	-22.0
> N=C(N)SCc1ccccc1F
 : -1.7	x
> NC(=O)COc1ncnc2scc(-c3ccccc3)c12
 : x	5.0
> O=C(Nc1ccc2c(c1)nc1n2CCCCC1)c1cc2ccccc2o1
 : x	-13.0
> CCN(CC)S(=O)(=O)c1ccc(NC(=O)Cn2ncc3c(=O)oc4ccc(C)cc4c32)cc1
 : x	13.0
> O=C(O)COc1ccc(NS(=O)(=O)c2cccc3nsnc23)cc1
 : -8.8	13.0
> O=c1[nH]c2cc3nc(C(F)(F)C(F)(F)F)[nH]c3cc2[nH]1
 : x	-19.0
> COCCOC(=O)C1=C(C)NC2=C(C(=O)CC(c3ccccc3)C2)C1c1ccc(Br)cc1 (configuration not stated)
 : 3.7	x
> CCN(CC)c1ccc(NC(=O)c2ccccc2F)cc1
 : 1.1	4.0

# Single records (already shown):
# Entry for OCC1CCCN(C(=S)NCc2ccccc2)C1 (configuration not stated) = MgrA DNA FP = 4.0; S aureus helic = 13.0
# Entry for NC(C(=O)O)C(c1ccccc1)C(F)(F)F (configuration not stated) = MgrA DNA FP = x; S aureus helic = -19.0
# Entry for CC(=O)Nc1cc2ccc(OC(C)=O)cc2oc1=O = MgrA DNA FP = 0.2; S aureus helic = -14.0

# Later entries:
# The line under a structure holds: MgrA DNA FP	S aureus helic
> c1csc(-c2nnc(Sc3nc(CN4CCCCC4)nc4sc5c(c34)CCCC5)o2)c1
 : x	-1.0
> CN1CCN(C(CNC(=O)NC2CCCCC2)c2ccc(F)cc2)CC1 (configuration not stated)
 : x	4.0
> c1ccc(Nc2ccc(-c3ccccc3)nn2)cc1
 : -2.2	x
> O=C1CSC(c2ccc3c(c2)OCO3)N1c1ccc(Br)cc1 (configuration not stated)
 : x	8.0
> CC1(C)CC(NC(=O)C23CC4CC(CC(C4)C2)C3)CC(C)(C)N1
 : 0.6	6.0
> CCOC(=O)c1cc(C(N)=S)c(=O)[nH]c1O
 : x	-26.0
> O=C(c1ccc(F)cc1)N1CCCN(c2nc(-c3ccccc3)ns2)CC1
 : -2.3	x
> CC1(C)ONC(=O)N(CCc2cccs2)C1=O
 : -0.8	x
> Nc1ncnc(N2CCCc3ccccc32)n1
 : -2.7	2.0
> O=C(CSCCO)N1CCc2ccccc21
 : 1.4	-6.0
> Cc1cc2c(cc1C)NC(c1ccc(O)cc1O)C1=C(CC(C)(C)CC1=O)N2 (configuration not stated)
 : x	37.0
> O=S(=O)(c1ccc(N=Cc2c(O)ccc3ccccc23)cc1)N1CCCCC1
 : 31.9	-7.0
> N#CC(C#N)=CNc1nccs1
 : x	11.0
> CCCC(=Nc1ccccc1O)C1=C(O)CC(CC(C)SCC)CC1=O (configuration not stated)
 : 1.4	-5.0
> CCSc1nnc(NC(=O)CSc2cn(CC)c3ccccc23)s1
 : x	-12.0
> Cc1ccccc1Nc1nc(N)nc(CSc2nc3ccccc3c(=O)n2CCCO)n1
 : x	-3.0
> Cc1ccc(Cl)cc1NC(=O)CCC(=O)NCc1ccco1
 : -0.3	13.0
> CCn1c(C)cc(O)cc1=O
 : x	18.0
> CCc1cccc(NC(=O)COc2cc(=O)n(C)c3ccccc23)c1
 : 2.1	15.0
> CCOc1ccc(C2CC(=O)N3CN(CCO)CSC3=C2C#N)cc1 (configuration not stated)
 : x	25.0
> Cc1cc(C)c(C#N)c(SCC(O)CS(=O)Cc2ccccc2)n1 (configuration not stated)
 : x	-18.0
> O=C(OCC(=O)N(C1CCCCC1)C1CCCCC1)c1ccc(O)cc1
 : x	11.0
> O=S(=O)(NC1=NCCCCC1)c1ccc(F)cc1F
 : -0.4	-11.0
> O=C(CCCn1ccc2cc(S(=O)(=O)N3CCCC3)ccc21)NCCc1ccccc1
 : x	-22.0
> COc1ccc(-c2noc(CN(C(=O)Nc3cccc(Cl)c3)C3CCCCC3)n2)cc1OC
 : 2.6	-11.0

# Screening data (PubChem)
